CapD inh = Bacillus anthracis CapD inhibitors, primary screen, biochemical, fluorescence intensity. CapD gamma-glutamyltranspeptidase (Bacillus anthracis Ames Ancestor). purified CapD enzyme, fluorescence intensity read-out; stronger effect = lower value; some hits fall short of the stated cut. z-score (test concentration not listed). actives 0.23% (n = 140,000);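 active means z-score under -4 in either of two replicates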;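 further: stock transfer was 100 nL into about 40 µL; score is relative to mean and spread of the plate; one replicate is shown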
AID504770 = growth inhibition of E. coli YBA685, primary screen, V. cholerae RctB inhibitors; E. coli YBA685 rctB-dependent plasmid, OD600 growth, 3 h; stronger effect = lower value; z-score (no concentration beside the values); actives 0.27% (n = 130,000); AID 504770, 2011;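 active means z-score under -2 on both plates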;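 further: wells of about 30 µL received 100 nL stock; score is relative to mean and SD of the test wells; the first replicate is given; strong numbers were not always called active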
* = called active by the depositor; i = inactive; x = no result given.

No.	structure	AID504770	CapD inh
1	O=C(CSc1nnc(CCCN2C(=O)c3cccc4cccc(c34)C2=O)n1-c1ccccc1)NCc1cccnc1	x	13
2	COc1ccc(NC(=O)Cn2cnc3c(nnn3-c3cccc(Cl)c3)c2=O)c(OC)c1	-0.3	0.27
3	CCOc1ccc(CO[C@@H]2O[C@H](CO)[C@@H](O)[C@H](O)[C@H]2NC(C)=O)cc1OC	-0.55	0.21
4	CN(C)CCNS(=O)(=O)c1ccc(C#N)cc1	x	-0.46
5	O=C(NCCCn1ccnc1)c1ccccc1Cl	-0.9	0.39
6	COC(=O)C1=C(C)N(C2CCCCC2)C(=O)/C1=C\c1cccs1	-0.7	-0.64
7	Cc1cc(C)c(NC(=O)COC(=O)C2CCC(=O)N2)c(C)c1 (stereo not given)	0.45	0.025
8	CCc1ccccc1N=CC12c3ccccc3C(c3ccccc31)C1C(=O)N(c3ccccc3[N+](=O)[O-])C(=O)C12 (stereo not given)	x	-0.26
9	O=C(CN1CCCCC1)N=Nc1c(O)[nH]c2ccccc12	-0.55	x
10	COc1cc(C2C(N3C(=O)c4ccccc4C3=O)C(=O)N2c2cc(Cl)ccc2C)cc(OC)c1OC (stereo not given)	x	0.055
11	CCSc1nc(-c2ccc(OC)cc2)n(-c2nc3ccccc3s2)n1	0.15	2.2
12	COc1ccc(OC)c(C(=O)c2coc3c2cc(O)c2ccccc23)c1	0.5	-0.29
13	CCOc1ccc(NC2SC(=O)N(CCC(=O)O)C2=O)cc1 (stereo not given)	0.65	0.39
14	COc1ccc(NC(=O)Cn2c(-c3ccccc3Cl)nc3sc(C)c(C)c3c2=O)cc1OC	x	6.4
15	Cn1c(=O)cc(SCC(=O)N2CCN(c3cccc(Cl)c3)CC2)c2ccccc21	0.3	0.08
16	CC1N(C)c2ccc(C=C(C#N)C#N)cc2C1(C)C (stereo not given)	-1.2	x
17	COc1cccc(OCC(=O)NCC2CCCO2)c1 (stereo not given)	0	-0.84
18	Cc1ccsc1/C=N/N1CCOCC1	-0.55	x
19	O=C(CCCn1c(=S)[nH]c2ccc(Br)cc2c1=O)NC1CCCCCC1	x	0.18
20	CCOC(=O)C1CCN(Cc2nc3sc4c(c3c(=O)[nH]2)CCCC4)CC1	-0.4	x
21	O=C(Nc1ccc(OC(F)(F)F)cc1)c1ccc(=O)[nH]c1	-0.7	x
22	COc1ccc(NC(=O)c2ccccc2Sc2ccc(NC(C)=O)nc2)cc1	x	-0.58
23	O=C(Cc1coc2cc(O)ccc12)OCc1ccccc1C(F)(F)F	-0.15	x
24	C=CCC(O)(c1ccc(O)cc1)C(CN1CCCCC1)c1ccccc1 (stereo not given)	-0.45	-0.93
25	N#CCOC(=O)c1cnc(Cl)c(Cl)c1	0.1	x
26	O=C(/C=C/c1ccc2c(c1)OCO2)N1CCCCC1	-0.65	x
27	COCCCN=C1NC(=O)C(CC(=O)Nc2ccc(Cl)cc2)S1 (stereo not given)	-0.2	0.37
28	CCCNC(=O)c1ccccc1Br	-1.3	0.15
29	O=C(O)c1c(N2CCCCC2)ccc([N+](=O)[O-])c1N1CCCCC1	x	-0.85
30	O=Nc1c(O)[nH]c2cc3c(cc12)OCCO3	-0.35	x
31	O=C(O)CCC(=O)OCc1ccccc1	0.35	0.61
32	CCN(CC)S(=O)(=O)c1ccc(NC(=O)Cc2ccc3c(c2)OCCO3)cc1	-0.6	x
33	CC1=NN(c2cccc(C(=O)O)c2)C(=O)/C1=C\c1cccn1-c1ccc(S(N)(=O)=O)cc1	x	-1.1
34	O=C(COCc1cc(-c2cccs2)on1)NC1CCCc2ccccc21 (stereo not given)	-0.95	0.27
35	Cc1ccc2oc(C(=O)Nc3nnc(C(C)C)s3)c(C)c2c1	0	2.2
36	C/C(=N\O)c1ccc(N2CCN(c3ncc(C(F)(F)F)cc3Cl)CC2)cc1	x	0.03
37	CCOC(=O)c1ccc(NC(=O)N2C3CCC2CC(NC(=O)NC24CC5CC(CC(C5)C2)C4)C3)cc1 (stereo not given)	0.85	x
38	CCOC(=O)CNC(=O)CC(=O)OCC	x	-0.01
39	CCCCNC(=O)CSc1nc(NCC2CCCO2)c2ccccc2n1 (stereo not given)	x	4.6
40	CC(C)CC(C(=O)Nc1cc(Cl)cc(Cl)c1)N1Cc2ccccc2C1=O (stereo not given)	x	0.07

An excerpt from above in order of count of non-hydrogen atoms, highest first:
No.	structure	AID504770	CapD inh
37	CCOC(=O)c1ccc(NC(=O)N2C3CCC2CC(NC(=O)NC24CC5CC(CC(C5)C2)C4)C3)cc1 (stereo not given)	0.85	x
33	CC1=NN(c2cccc(C(=O)O)c2)C(=O)/C1=C\c1cccn1-c1ccc(S(N)(=O)=O)cc1	x	-1.1
34	O=C(COCc1cc(-c2cccs2)on1)NC1CCCc2ccccc21 (stereo not given)	-0.95	0.27
35	Cc1ccc2oc(C(=O)Nc3nnc(C(C)C)s3)c(C)c2c1	0	2.2
38	CCOC(=O)CNC(=O)CC(=O)OCC	x	-0.01

Next structures follow.
No.	structure	AID504770	CapD inh
41	CCCOC(=O)c1ccc(NC(=O)c2c(O)c3cccc4c3n(c2=O)CCC4)cc1	x	-0.85
42	COc1cccc(NC(=O)CSc2nc(NCC3CCCO3)c3ccccc3n2)c1 (stereo not given)	x	0.27
43	O=C(COc1ccc(-c2ccccc2)cc1)N1CCCC1	-0.15	1.3
44	CCOC(=O)c1cc2n(n1)C(C(F)(F)F)CC(c1ccccc1)N2 (stereo not given)	-0.7	0.64
45	COC(=O)Nc1nnc(SCc2ccc(C)cc2)s1	0.55	0.025
46	O=C1c2ccccc2C(=O)N1c1ccc2ncccc2c1	1	0.13
47	CC1CN(C(N)=S)N(c2ccccc2)C1 (stereo not given)	-0.7	-0.085
48	COc1ccc(-n2cc(-c3ccccc3)c3c(NCc4ccccc4)ncnc32)cc1	0.55	0.84
49	Cc1ccc(N=Cc2ccccc2O)cc1Cl	x	0.2
50	CCCNC(=O)C1CCN(c2cc(C)nc3c(-c4ccc(Cl)cc4)c(C)nn23)CC1	1.9	4.6
51	COc1ccc(C2CC(=O)C3=C(C2)Nc2ccccc2NC3c2coc3ccc(Cl)cc3c2=O)cc1OC (stereo not given)	x	0.76
52	COc1ccc2nc(C)cc(Nc3ccccc3)c2c1	0.75	0.68
53	Cc1nc(-c2ccccc2)sc1C(=O)CSc1ccc(Cl)cc1	x	-0.99
54	Cc1cc(C)c(C#N)c(SS(=O)(=O)c2nc(C)cc(C)c2C#N)n1	-0.5	-0.64
55	CN(C1CCCCC1)S(=O)(=O)N1CCCC(C(=O)NCc2cccc(Br)c2)C1 (stereo not given)	-0.45	-1
56	COc1ccc(-c2cc3cc(OC)c(OC)cc3c(Cc3cccc4ccccc34)n2)cc1C	x	11
57	CCCNC(=O)c1ccc2c(c1)c(C)c(C)n2C	-0.2	2.9
58	O=C(Oc1cccnc1)c1cc2ccccc2o1	-0.5	0.3
59	CCOc1cc(/C=C2/SC(=S)N(CC(=O)O)C2=O)ccc1Oc1ccc([N+](=O)[O-])cc1[N+](=O)[O-]	x	-0.3
60	Cc1nn(CC(=O)NC2CCCC(C)C2C)c(=O)c2cc3cc(F)ccc3n12 (stereo not given)	2.2	0.91
61	O=C(CCS(=O)(=O)c1ccccc1)Nc1ccc2c(c1)C(=O)NC2=O	0	x
62	CCN(CC)C(=O)c1ccccc1NC(=O)c1cccc(S(=O)(=O)N(CC)CC)c1	-0.65	2.6
63	Cc1ccc(Cn2ccsc2=NC(=O)C2(C#N)CCCC2)cc1	1.4	x
64	COc1ccc(OCC(O)CNC(C)C)cc1 (stereo not given)	-0.9	-0.69
65	CC(C)(C)OC(=O)NCC(=O)NNC(=S)Nc1ccccc1	x	-0.41
66	CCOc1ccc(N=c2scc(-c3ccc(S(=O)(=O)N4CCCC4)cc3)n2CC)cc1	1.9	3.7
67	CCOc1ccc(NC(=S)N2CCSC2c2ccc(C#CC(C)(C)O)s2)cc1 (stereo not given)	1.4	0.31
68	CCOC(=O)c1c(NC(=O)c2ccc([N+](=O)[O-])cc2)sc2c1CCN(C(=O)OCC)C2	x	0.76
69	Cc1cc(N2CCC(C(N)=O)CC2)nc2cc(O)ccc12	-0.5	109
70	CC(=O)NC(C)C1COc2ccccc2O1 (stereo not given)	0.1	x
71	Cc1ccc(CNC(=O)COc2nc3ccccc3nc2N2CCOCC2)cc1	-0.5	x
72	CCOC(=O)c1cnn(-c2ccccc2)c1NC(=O)CN1CCOCC1	-0.5	-0.18
73	NCCSc1ncc(-c2ccc(Cl)cc2)[nH]1	0.05	x
74	O=C(Cc1ccccc1)Nc1c2c(nn1-c1ccccc1)CS(=O)C2 (stereo not given)	0.2	0.41
75	CC1CCCN(S(=O)(=O)c2ccc3c(c2)CN(C(=O)C(F)(F)F)CC3)C1 (stereo not given)	x	-1.1
76	CSc1ccc(C(N)CC(=O)O)cc1 (stereo not given)	-0.1	-0.075
77	COc1ccccc1-c1csc(Nc2cccnc2)n1	-0.15	-0.4
78	CCOc1cc(CNCc2ccc(CN3CCOCC3)cc2)ccc1OCC(=O)N(C)C	0.7	x
79	COc1ccc(-c2nn(CN(CC(C)C)CC(C)C)c(=S)n2CC2CCCO2)cc1 (stereo not given)	-0.5	x
80	O=c1oc2cc(Br)ccc2n1CO	0.95	x
81	CNc1ncnc2c1ncn2[C@@H]1O[C@H](CO)[C@@H](O)[C@H]1O	x	23
82	CN(C(=O)CSc1nc(N)cc(=O)[nH]1)c1ccccc1	-0.4	x
83	O=C(NCc1ccco1)c1ccc2c(c1)CCN2S(=O)(=O)c1ccccc1	-0.7	-0.1
84	C=CCn1c(SCc2ccc(Cl)cc2)nc2cc(C(=O)N3CCC(C(N)=O)CC3)ccc2c1=O	0.05	-0.005
85	NNC(=S)NC12CC3CC(CC(C3)C1)C2	0.05	0.38
86	CCc1c(O)n2c(nc3ccccc32)[nH]c1=O	-0.65	2
87	CCOC(=O)c1c(CC(C)C)csc1NC(C)=O	-0.05	x
88	CS(=O)(=O)Nc1ccccc1-c1nc2ccccc2[nH]c1=O	-0.3	x

Whole records, quoted from the list.
O=C(Cc1ccccc1)Nc1c2c(nn1-c1ccccc1)CS(=O)C2 (stereo not given) is listed as AID504770 = 0.2; CapD inh = 0.41
Cc1cc(C)c(C#N)c(SS(=O)(=O)c2nc(C)cc(C)c2C#N)n1 is listed as AID504770 = -0.5; CapD inh = -0.64

Later entries.
No.	structure	AID504770	CapD inh
89	O=C(/C=C/c1cccc2ccccc12)N1CCCCC1	0.05	1.2
90	NC(=S)CC(=O)Nc1ccccc1	-0.05	x
91	O=S(=O)(c1ccccc1Br)N1CCN(Cc2ccc3ccccc3c2)CC1	x	-0.64
92	CS(=O)(=O)Nc1ccc(N2CCN(c3ccc(C(F)(F)F)cn3)CC2)nc1	-0.3	19
93	CCCCn1c(O)c(C#N)c(C)cc1=O	-0.95	5.9
94	COCCCN=CC1=C(O)CC(C)(C)CC1=O	-0.1	0.71
95	COc1cc2[nH]c(=S)nc(NCCc3ccc(S(N)(=O)=O)cc3)c2cc1OC	0	0.22
96	Cc1ccc(=O)n(Cc2ccc(Cl)c(Cl)c2)n1	x	-0.05
97	COc1cc(CN2CCN(Cc3ccc4ccccc4c3)CC2)cc(OC)c1OC	-0.85	0.02
98	CCCOc1ccc(CC(=O)NC(C)CC)cc1OC (stereo not given)	-0.85	0.085
99	O=c1c2c(nc3nc(NCc4cccs4)[nH]n13)CCCC2	0.55	0.47
100	c1coc(CNc2nc(N3CCOCC3)nc(N3CCOCC3)n2)c1	x	0.57
101	O=C(Cc1ccccc1)Nc1nc2ccccc2[nH]1	-0.8	x
102	N#Cc1c(NC(=O)CCCN2C(=O)c3ccccc3C2=O)oc(-c2ccccc2)c1-c1ccccc1	x	0.71
103	Oc1ccccc1N1CCN(C(=S)NCc2ccccc2)CC1	0.05	0.15
104	CSc1n[nH]c(=O)c2cc(C)nn12	0.4	11
105	CN(/N=C/c1sc2ccccc2c1O)c1ccccc1	2.2	-1.9
106	CCOC(=O)C1=C(C)N=c2s/c(=C\c3ccc(OC)c(O)c3)c(=O)n2C1c1ccc(OC(C)C)cc1 (stereo not given)	x	-0.76
107	N#CCc1cccc(OCc2ccccc2)c1	-0.65	-0.83
108	CCN1CCN(c2cc3c(nn2)Oc2ccccc2N3C)CC1	-0.35	i
109	CCOC(=O)c1c(CC(C#N)(c2ccccc2)c2ccccc2)n(C)c2cc(Br)c(OC)cc12	x	-0.09
110	CCCCn1c(SCC(=O)NC(=O)NC2CCCC2)nc2ccccc2c1=O	0.7	x
111	COc1ccc(-c2[nH]nc3c2C(c2cn[nH]c2-c2ccc(F)cc2)C(C#N)=C(N)O3)cc1OC (stereo not given)	x	-0.08
112	Cc1[nH]c2ccccc2c1SCc1nnc(SCC(=O)Nc2cccc(C(F)(F)F)c2)n1C	x	0.2

Overlap with the part before: 3 entries, followed by the next part.
No.	structure	AID504770	CapD inh
110	CCCCn1c(SCC(=O)NC(=O)NC2CCCC2)nc2ccccc2c1=O	0.7	x
111	COc1ccc(-c2[nH]nc3c2C(c2cn[nH]c2-c2ccc(F)cc2)C(C#N)=C(N)O3)cc1OC (stereo not given)	x	-0.08
112	Cc1[nH]c2ccccc2c1SCc1nnc(SCC(=O)Nc2cccc(C(F)(F)F)c2)n1C	x	0.2
113	O=C(COc1ccc(Cl)cc1)Nc1sc2c(c1C(=O)Nc1cccc3ccccc13)CCC2	x	-0.4
114	CN(C(=O)COC(=O)C1(c2ccc(Cl)cc2)CC1)C1CCS(=O)(=O)C1 (stereo not given)	-3.2	x
115	CCOC(=O)c1ccc(-n2c(C)cc(C=NCc3cn4ccsc4n3)c2C)cc1	0	x
116	Cc1nc(C)c(-c2nnc(-c3ccc(C(F)(F)F)cc3)o2)s1	0.15	10
117	CC(=O)Nc1nc(-c2ccccc2)nc2c1c(=O)oc1ccccc12	x	-0.075
118	O/N=C(/Cc1ccc2ccccc2n1)c1ccccc1	-0.2	-0.13

Compounds as they come, and some 0.39% of all compounds hit somewhere here.
